Assay outcomes from PubChem BioAssay.
FEN1 inh: human FEN1 inhibition. P39748. Potency, µM (top dose mostly 114 µM), for the others: top-dose activity change, negative = inhibition, most hits filed as inhibitors. 390,000 compounds, 0.35% hits. Recombinant FEN1 flap cleavage, fluorescence, 15 min; further: nearly all actives have a fitted effect of over 65% in size
Target sequence (P39748 whole entry, looked up): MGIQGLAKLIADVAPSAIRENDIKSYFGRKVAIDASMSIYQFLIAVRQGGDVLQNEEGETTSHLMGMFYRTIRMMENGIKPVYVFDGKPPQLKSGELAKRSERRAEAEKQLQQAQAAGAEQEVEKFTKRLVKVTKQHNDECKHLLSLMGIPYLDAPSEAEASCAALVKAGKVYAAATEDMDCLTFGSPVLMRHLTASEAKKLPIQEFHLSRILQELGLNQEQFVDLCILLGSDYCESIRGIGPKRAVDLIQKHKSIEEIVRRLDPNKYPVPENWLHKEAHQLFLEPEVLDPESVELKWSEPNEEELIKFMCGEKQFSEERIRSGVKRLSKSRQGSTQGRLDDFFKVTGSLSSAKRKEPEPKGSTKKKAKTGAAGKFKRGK
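Potency values derive from four-parameter Hill fits of normalized qHTS data. The reaction used 10 nM FEN1 preincubated 15 min at room temperature with compound, then 50 nM DNA substrate, read at 0 and 15 min.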
TDP1 cell CPT: growth inhibition of DT40 Tdp1-/-;hTDP1 cells with camptothecin (screen for TDP1 inhibitors); chicken DT40 Tdp1-/-;hTDP1 cells + 20 nM CPT, ATP luminescence, 48 h; Potency, µM (top dose mostly 46.2 µM), without a hit: top-dose activity change, negative = growth inhibition, actives largely listed as inhibitors; 420,000 compounds, 12% hits; further: nearly all actives have a fitted effect of over 55% in size
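Cell growth measured by CellTiter-Glo luminescence after a minimum 48 h, 37 C compound exposure with 20 nM CPT in Tdp1-knockout DT40 cells stably expressing hTDP1, seeded 400/well; qHTS titration format.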
* marks the source's active call; other numbers are inactive results; ? = inconclusive; nt = not tested or not shown; & = joins results of further samples. The call rests on the fitted dose curve; in most records, active means well fitted curve in the direction sought with a large enough effect; inconclusive means small, poorly fitted or top-dose-only effect, or another doubt; inactive means no such curve, though single readings can be large; an effect the other way counts as inactive or inconclusive. On the % scale 0 is the no-effect control and ±100 the full control effect; potency means the concentration at half of the fitted maximal effect.

[1] Cc1ccc(-n2c(C)nnc2SC(C)C(=O)N2CCCC2)cc1 (stereo not given)
[2] Cc1ccc(S(=O)(=O)N2CCCCC2)cc1NC(=O)CCOc1ccccc1
[3] O=[N+]([O-])c1ccc(SCc2ccco2)cc1N1CCOCC1
[4] COc1ccc(C2CC(c3ccc(C)cc3)=NN2C(=O)c2ccccc2)cc1 (stereo not given)
[5] COc1ccc(OC)c(NC(=O)C2CCCN(S(=O)(=O)c3cccc4nsnc34)C2)c1 (stereo not given)
[6] COc1ccc(C2=NS(=O)(=O)N(C)C(C(=O)N3CCC(C)CC3)=C2)cc1
assay / compound | 1 | 2 | 3 | 4 | 5 | 6
FEN1 inh | -4% | -2% | -2% | 5% | -10% | -6%
TDP1 cell CPT | 7% | ? | ? | 21µM* | 16µM* | ?

[7] Cc1cc(C)c2c(N=NN3CCOCC3)[nH]nc2n1
[8] O=C(NNC(=O)c1cccc(-n2cnnn2)c1)c1ccccc1
[9] Cc1nc(N)sc1-c1nnc(SCC(=O)Nc2ccccc2C(F)(F)F)n1C
[10] O=C(c1ccc(OCC2CCCO2)cc1)N1CCN(c2ccccc2)CC1 (stereo not given)
[11] Cc1ccc(NCc2nnc(SCC(=O)NCc3ccco3)n2CC2CCCO2)c(C)c1 (stereo not given)
[12] COc1ccccc1/C=N/NC(=O)CSc1ccc2ccccc2n1
assay / compound | 7 | 8 | 9 | 10 | 11 | 12
FEN1 inh | -9% | 6% | 3% | -2% | -12% | -20%
TDP1 cell CPT | -3% | -16% | -10% | -4% | -16% | ?

[13] COCc1cc(N2CCN(c3ccccc3F)CC2)nc(-c2ccccc2)n1
[14] CC1CCN(S(=O)(=O)c2ccc(NC(=O)CSc3ncccc3C(=O)O)cc2)CC1
[15] CC(C)(C)OC(=O)COc1cc(OCC(=O)OC(C)(C)C)c2c(=O)cc(-c3ccccc3)oc2c1
[16] O=C(OCCCN=C1NS(=O)(=O)c2ccccc21)c1ccccc1
[17] COc1cc(OC)cc(C(=O)NCC(=O)OCC(=O)Nc2ccc(C)c(S(=O)(=O)N3CCOCC3)c2)c1
[18] CCOC(=O)CN1C(=O)N[C@@H](c2cccc(C(F)(F)F)c2)[C@H](C(C)=O)[C@H]1C
assay / compound | 13 | 14 | 15 | 16 | 17 | 18
FEN1 inh | -3% | -1% | -20% | -3% | -5% | -15%
TDP1 cell CPT | ? | -18% | ? | -10% | -5% | ?

[19] COc1ccc(Oc2ncc3ncc(=O)n(CCc4ccccc4)c3n2)cc1
[20] COc1ccc(CCNC(=O)c2c(C)nn(CC(C)C)c2Cl)cc1OC
[21] COc1ccc(CCCc2nnc(SCC(=O)Nc3nccs3)n2C)cc1C
[22] O=C(N/C(=C\c1ccco1)C(=O)N1CCOCC1)c1ccccc1Cl
[23] Cc1ccc2c(c1)N(C(=O)CCC(=O)N1CCc3ccccc3C1)CCO2
[24] COc1ccc(COc2ccc3c(C)cc(=O)oc3c2)cc1
assay / compound | 19 | 20 | 21 | 22 | 23 | 24
FEN1 inh | nt | 16% | 4% | -5% | 0% | -8%
TDP1 cell CPT | 19% | -9% | ? | 3% | ? | ?

Complete entries, quoted from the list. Values in the order: FEN1 inh	TDP1 cell CPT
`COc1ccc(CCCc2nnc(SCC(=O)Nc3nccs3)n2C)cc1C` is listed with 4%	?
`O=C(N/C(=C\c1ccco1)C(=O)N1CCOCC1)c1ccccc1Cl` is listed with -5%	3%
`COc1ccc(CCNC(=O)c2c(C)nn(CC(C)C)c2Cl)cc1OC` is listed with 16%	-9%

New compounds follow:
[25] NS(=O)(=O)c1ccc(S(=O)(=O)N(Cc2ccccc2F)CC2CCCO2)cc1 (stereo not given)
[26] COC(=O)c1ccc(CNS(=O)(=O)c2ccc3ccccc3c2)cc1
[27] Cc1noc(C)c1C(=O)N1CCN(Cc2ccc3c(c2)OCO3)CC1
[28] COc1cccc(/C=C/C(=O)NNC(=O)c2cc(C)oc2C)c1
[29] CCC1=C(OC(=O)N(CC)CC)N2C(=O)OC(=NCc3ccccc3)[C@]2(C)[C@H]2C1=CC[C@H]1C(=O)NC(=O)[C@H]12
[30] COc1ccc(NC(=S)N2CCC(c3ccccc3)C2)cc1 (stereo not given)
assay / compound | 25 | 26 | 27 | 28 | 29 | 30
FEN1 inh | 9% | -4% | -3% | 2% | 0% | 4%
TDP1 cell CPT | ? | -1% | -19% | -20% | -30% | -21%

[31] Nn1c(SCc2cn3ccccc3n2)nnc1-c1ccncc1
[32] CCc1ccc(C(=O)CN2C(=O)C(C)N(c3ccc(C)cc3)C2=O)cc1 (stereo not given)
[33] CCOC(=O)c1cn(CC(=O)Nc2ccc(C(C)C)cc2)nn1
[34] NC(=O)/C(=C\c1ccncc1)c1cccc2ccccc12
[35] O=S(=O)(c1cccc(Cl)c1)N1CCCC1
[36] CCC(=O)Oc1ccc(NC(=O)c2ccco2)cc1
assay / compound | 31 | 32 | 33 | 34 | 35 | 36
FEN1 inh | -1% | -3% | -4% | 18% | -4% | 13%
TDP1 cell CPT | -1% | ? | -3% | -2% | -13% | 0%

[37] CCN(CC)S(=O)(=O)c1ccc(Cl)c(C(=O)NC2CCN(Cc3ccccc3)CC2)c1
[38] CCc1cc(C(=O)N(CC(C)C)c2c(N)n(Cc3ccccc3)c(=O)[nH]c2=O)sc1C
[39] COc1cccc(-c2cc3nc(-c4ccccc4)cc(N4CCCC(O)C4)n3n2)c1 (stereo not given)
[40] COc1ccc([N+](=O)[O-])cc1N(CC(O)CN(C)C)S(=O)(=O)c1ccc(C)cc1 (stereo not given)
[41] COc1ccccc1NC(=O)C(=O)NCCC1CCCCN1S(=O)(=O)c1ccc(F)cc1 (stereo not given)
[42] COC(=O)Cc1c(O)ccn(CCc2ccc(OC)c(OC)c2)c1=O
assay / compound | 37 | 38 | 39 | 40 | 41 | 42
FEN1 inh | -4% | 13% | -21% | -16% | -4% | 5%
TDP1 cell CPT | 16µM* | -16% | ? | -1% | 15µM* | 26%

[43] Cc1ccn(CC(=O)NC2CCCN(Cc3ccc(CC(C)C)cc3)C2)n1 (stereo not given)
[44] COc1ccc(C2/C=C\CN(C(=O)OCc3ccccc3)CC(=O)N2Cc2ccc(F)cc2)cc1 (stereo not given)
[45] CC(C)c1nc(C(=O)N2CCCC(N3CCN(c4cccc(Cl)c4)CC3)C2)cs1 (stereo not given)
[46] CCOc1ccc(C(=O)Nc2cccc(-c3ccc(N4CCOCC4)nn3)c2)cc1OCC
[47] CCOC(=O)c1c(NC(=O)CN2CCN(C(=O)c3ccco3)CC2)sc(C)c1C
[48] CCOc1ccc(S(=O)(=O)N2CCC(C(=O)NCc3ccco3)CC2)cc1
assay / compound | 43 | 44 | 45 | 46 | 47 | 48
FEN1 inh | 17% | -23%&-2% | -11% | 4% | 1% | 0%
TDP1 cell CPT | ? | ? | ? | ? | ? | 2%

[49] C#Cc1cccc(-n2nnc(C(=O)OC)c2-c2ccccc2)c1
[50] CC(NCC(O)COCc1ccc(Cl)cc1)c1ccccc1 (stereo not given)
[51] O=C(O)c1cc(NC(=O)c2cccc(N3C(=O)c4ccccc4C3=O)c2)cc(C(=O)O)c1
[52] N=c1c(C(=O)NC2CCCC2)cc2c(=O)n3ccccc3nc2n1C1CCCC1
[53] CCOC(=O)N1CCC(N2Cc3cccc(C(=O)NCC4CCN(CC(C)C)C4)c3C2=O)CC1 (stereo not given)
[54] CC(=O)NC1CC2CCC(C1)N2Cc1ccc(C)cc1 (stereo not given)
assay / compound | 49 | 50 | 51 | 52 | 53 | 54
FEN1 inh | -3% | -5% | 3% | 0% | -10% | -6%
TDP1 cell CPT | 4% | ? | 3% | ? | -17% | -2%

[55] CCn1c(=O)c(C(=O)Nc2ccccc2C)c(O)c2ccccc21
[56] O=C(COC(=O)c1ccc(NS(=O)(=O)c2cccs2)cc1O)Nc1ccc(F)cc1
[57] Cc1ccccc1-n1ncc(C(C)NC(=O)c2ccco2)c1C (stereo not given)
[58] Cc1cc2c(ncn2C(C)C)c(NS(=O)(=O)c2ccc(F)cc2)c1C
[59] CCC(=O)Nc1cccc(NC(=O)c2ccc(C)c([N+](=O)[O-])c2)c1
[60] Fc1ccc(CN2CCCCCCC2)c(F)c1
[61] Cc1c(NC(=O)COC(=O)c2c3c(nc4ccccc24)CCCC3)c(=O)n(-c2ccccc2)n1C
[62] COC(=O)NC1CSCC1OC(=O)CN1C(=O)c2ccccc2C1=O (stereo not given)
[63] CCn1c(SCC(=O)NC(C)(C)C)nnc1-c1ccccn1
assay / compound | 55 | 56 | 57 | 58 | 59 | 60 | 61 | 62 | 63
FEN1 inh | -12% | -3% | 1% | -9% | 13% | -2% | 7% | 5% | 0%
TDP1 cell CPT | ? | ? | -27% | ? | ? | -4% | -29% | 11% | -3%

Structures above that have an aryl thioether with sulfur outside any ring:
[1] Cc1ccc(-n2c(C)nnc2SC(C)C(=O)N2CCCC2)cc1 (stereo not given)
[3] O=[N+]([O-])c1ccc(SCc2ccco2)cc1N1CCOCC1
[9] Cc1nc(N)sc1-c1nnc(SCC(=O)Nc2ccccc2C(F)(F)F)n1C
[11] Cc1ccc(NCc2nnc(SCC(=O)NCc3ccco3)n2CC2CCCO2)c(C)c1 (stereo not given)
[12] COc1ccccc1/C=N/NC(=O)CSc1ccc2ccccc2n1
[14] CC1CCN(S(=O)(=O)c2ccc(NC(=O)CSc3ncccc3C(=O)O)cc2)CC1
[21] COc1ccc(CCCc2nnc(SCC(=O)Nc3nccs3)n2C)cc1C
[31] Nn1c(SCc2cn3ccccc3n2)nnc1-c1ccncc1
assay / compound | 1 | 3 | 9 | 11 | 12 | 14 | 21 | 31
FEN1 inh | -4% | -2% | 3% | -12% | -20% | -1% | 4% | -1%
TDP1 cell CPT | 7% | ? | -10% | -16% | ? | -18% | ? | -1%

[63] CCn1c(SCC(=O)NC(C)(C)C)nnc1-c1ccccn1
assay / compound | 63
FEN1 inh | 0%
TDP1 cell CPT | -3%

This is a subset; most or all hits stand in other tables.
